MT1-MMP act inh – blocks activation of human MT1-MMP; P50281; HT1080 RFP-PRO-GFP cells, GFP/RFP ratio fluorescence, overnight; percent of plate control window, DMSO zero; GFP/RFP ratio change, % at 20 µM; hit rate 0.061% among 360,000;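 active means GFP/RFP ratio change of at least 30% with cell ATP level not reduced by more than half and red fluorescence within 50% of control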; further: strong numbers were not always called active
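Test system: HT1080 cells expressing an RFP-PRO-GFP fluorescent reporter construct / Compound dosing: single-point 20 µM compound, 1% DMSO / Schedule: cells overnight before dosing, compound overnight, 37 °C, 5% CO2 / Evaluation: GFP/RFP fluorescence ratio / Control set: DMSO and RFP-L50D-GFP cell wells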
CSC inhib – blocks cancer stem cells. cancer stem cell-like cells viability, luminescence. inhibition, % at 7.5 µM. hit rate 1.1% among 300,000;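 active means mean at 75% or more and at least half the replicates too; inconclusive means mean and replicates disagree; tested in HMLE shEcad cells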;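 further: 0% = median of negative and 100% = median of positive control wells; the first replicate is given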
UUG fidelity – alters start codon recognition fidelity in yeast | S. cerevisiae UUG-firefly luciferase reporter, luminescence/redox ratio | activity score, % at 18.7 µM | hit rate 0.13% among 350,000 | AID 602363;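 active means replicate mean at a twofold rise or more, about +100% in these data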;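 further: firefly luciferase made from a UUG start codon reports start codon fidelity; reporter light over untreated wells divided by growth signal over untreated wells; some hits fall short of that in this replicate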
eIF4H FP inh – inhibitors of RNA binding by human eIF4H. Q15056. eIF4H fluorescence polarization binding assay. inhibition, % at 35 µM. hit rate 0.94% among 290,000. AID 2012;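 active means 50% or more with normal probe brightness, or confirmed in later tests; inconclusive means above 50% with abnormal brightness, or retests that disagree; inactive means below 50% or failed in later tests; about a fifth of its hits are not listed in these tables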;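 further: calls also rest on retests at 20 µM and on dose response follow-up; 0% = protein and probe with vehicle and 100% = probe without protein; strong numbers were not always called active; many hits fall short of the cut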
Rce1 inh – inhibitors of yeast Ras-converting enzyme; Q03530; yeast membranes, quenched prenylated peptide cleavage fluorescence; calls only; hit rate 0.27% among 290,000;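 active means fall in fluorescence gain of 50% or more versus controls, with final raw signal at or below 3038400; inconclusive means same 50% fall but final raw signal above 3038400; inactive means fall in fluorescence gain under 50%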;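 further: plate controls were neutral control wells for no effect and wells lacking membranes for full effect; tested at 10 µM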
Target sequence (Q03530 whole entry, looked up): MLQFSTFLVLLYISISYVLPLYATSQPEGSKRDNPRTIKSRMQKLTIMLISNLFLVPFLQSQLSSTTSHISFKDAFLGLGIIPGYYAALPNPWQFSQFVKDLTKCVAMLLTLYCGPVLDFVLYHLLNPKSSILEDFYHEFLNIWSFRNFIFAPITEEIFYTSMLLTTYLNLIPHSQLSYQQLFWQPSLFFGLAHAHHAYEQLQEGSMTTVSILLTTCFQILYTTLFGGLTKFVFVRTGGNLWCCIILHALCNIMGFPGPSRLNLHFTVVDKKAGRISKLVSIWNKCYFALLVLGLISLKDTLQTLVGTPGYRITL
PABP polyA inh – PABP-poly(A) binding inhibition. inhibition, % at 35 µM. P11940. hit rate 1% among 290,000. PABP-poly(A) RNA binding, fluorescence polarization;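 active means 50% or more with normal probe brightness, or confirmed in later tests; inconclusive means above 50% with abnormal brightness, or retests that disagree; inactive means below 50% or failed in later tests; about a fifth of its hits are not listed in these tables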;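 further: calls also rest on retests at 20 µM and on dose response follow-up; controls were probe without protein and protein plus probe with vehicle; some compounds called inactive have numbers as strong as hits; many hits fall short of the cut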
HIV Env fusion – HIV envelope-mediated fusion inhibition; inhibition, % at 12.3 µM; AID 651610; hit rate 1.1% among 360,000; HeLa-JRFL Env/CEM21 cell fusion, luciferase;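 active means mean replicate inhibition score of at least 50 and every replicate individually at or above 50; inconclusive means only one of the two criteria met; inactive means mean below 50 and not all replicates reaching 50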;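 further: 0% = plate neutral controls and 100% = maraviroc near 300 nM; one replicate is shown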
eIF4H FP inh retest – also measured in eIF4H FP inh; calls as there; inhibition, %; compound at 20 µM; confirmation average;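 mean of two retest wells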
PABP polyA inh retest – also measured in PABP polyA inh; calls as there; inhibition, %; compound at 20 µM; confirmation repeats;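 mean of two retest wells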
MT1-MMP act inh RFP – further read-out of MT1-MMP act inh, marked with its call; RFP signal change, %; measured here: RFP expression control read;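 0 = vehicle wells; hits needed this value within 50% of zero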
* = called active by the depositor; i = inactive; u = inconclusive; x = not tested or not shown; & = joins results of further samples; [ ] = another dose, or the depositor's remark.

SMILES	MT1-MMP act inh	MT1-MMP act inh RFP	CSC inhib	UUG fidelity	eIF4H FP inh	Rce1 inh	PABP polyA inh	HIV Env fusion	others
O=C(CN1CCN(S(=O)(=O)/C=C/c2ccccc2)CC1)Nc1ccc(N2CCOCC2)cc1	-1	0	-4	1	-7	i	-7	-19
c1ccc(N2CCCCC2)c(Nc2nc3ccccc3n3cnnc23)c1	-3	-9	30	-7	-6	i	4	-8
CC(c1ccc(F)cc1)n1c(-c2cccs2)n[nH]c1=S (stereo not given)	0	2	-9	x	7	i	2	1
COc1ccc(C(CCO)NC(=O)c2cccs2)cc1OC (stereo not given)	-7	-1	3	-16	-9	i	-1	-18
Cc1ccccc1-n1nc2c(c1NC(=O)c1cccc(F)c1)CS(=O)C2 (stereo not given)	-1	8	-2	-6	7	i	4	-7
Cc1ccc(Sc2ccc(NC(=O)c3ccc(F)cc3)cc2C#N)cc1	-11	-27	x	-13&10	x	x	x	-11
C=CCNC(=O)NC(=O)COC(=O)/C(C#N)=C/c1cc(C)n(CCC(C)C)c1C	3	0	-9	-19	-7	i	-1	-7
O=[N+]([O-])c1ccc(COP(=O)(O)OCc2ccc([N+](=O)[O-])cc2)cc1	-1&3	3&3	3	-2&-35	x	i	x	-2&-21
COc1ccc(C(CC(=O)N2CCCC2)C(C)C)cc1 (stereo not given)	-1	-1	x	-6	-3	i	4	6
COc1ccccc1Nc1nc(C)nc2c1oc1ccccc12	0	0	3	x	-5	i	-6	4
Cc1sc(NC(=O)c2ccco2)c(C(c2cccnc2)N2CCC(C)CC2)c1C (stereo not given)	-8	-19	-4	-11	2	i	2	62*
C[C@H]1CN([C@@H](C)CO)S(=O)(=O)c2ccc(Br)cc2O[C@H]1CN(C)C(=O)Cc1ccccc1	4	2	x	26	x	x	x	12[16.7 µM]
O=C(Nc1ccc(C(=O)O)cc1)/C(=C\c1ccccc1)NC(=O)c1ccccc1	-5	2	3	-16	-4	i	17	-15
CCOCCn1c(SCc2c(F)cccc2Cl)nc2c1c(=O)[nH]c(=O)n2C	7	-2	-13	-2	4	i	6	-37
O=C1Nc2ccc([N+](=O)[O-])cc2C1(O)N1CCCCCC1 (stereo not given)	-7	-1	-3	-21	3	i	4	x
COCCCNC(=O)CN(CCc1ccccc1)S(=O)(=O)c1ccccc1	4	5	-11	x	7	i	10	7
CCC(C(=O)OC)n1cnc2c(nnn2-c2cccc(OC)c2)c1=O (stereo not given)	1	2	-24	x	-8	i	6	14
CCOC(=O)C1=C(C)Nc2nc(C)nn2C1c1ccc(OC)c(OC)c1 (stereo not given)	0	0	-11	-9	-3	i	4	-17
Cc1ccc(-c2cc(C(F)F)n3ncc(C(=O)N4CCN5CCCC5C4)c3n2)cc1 (stereo not given)	6	6	-8	-2	-13	i	2	x
CCn1cc(/C=C(\NC(=O)c2ccccc2)C(=O)NCCCN2CCOCC2)c2ccccc21	1	2	8	-4	x	i	x	1
COc1ccccc1-n1c([S-])c(C(=O)Nc2ccccc2C(F)(F)F)[n+]2ccc(C(=O)NCCO)cc12	-6	-1	1	x	21	i	8	-99
Cc1ccc(NC(=O)c2ccc(CN3CCc4ccccc4C3)cc2)cc1	-1	-15	12	-16	-13	i	-10	93*
O=C(Nc1ccc(S(=O)(=O)Nc2ncccn2)cc1)C1=COCCO1	-2	4	-9	-14	x	i	x	7
O=C(N/N=C/c1ccco1)C1CC1c1ccccc1 (stereo not given)	4	7	-5	x	100	i	-3	-11	eIF4H FP inh retest=-2;PABP polyA inh retest=6
C=CCn1cc(/C=C/c2cc[n+](C)cc2)c2ccccc21	-277	-27	26	2	u	i	u	u
CCC(C)(C)NS(=O)(=O)c1cc(CN2C(=O)c3cccnc3C2=O)ccc1OC	-4	1	15	-21	-6	i	-8	0
CCCc1nc2ccc(C(=O)OC)cn2c1Cc1ccccc1	0	2	x	4	x	x	x	-5
CC(=O)NC(Cc1cccc(F)c1)C(=O)NC1CCN(C(=O)c2ccc(C)cc2)CC1 (stereo not given)	1	5	3	-2	0	i	0	-7
Cc1ccc(NC(=O)NCc2ccc3[nH]c(C)cc3c2)cc1	10	8	4	x	2	i	-10	3
Cc1cc(C)n(CCC(=O)N2CCc3ccccc32)n1	-1	3	-10	-22	-5	i	2	-4
CNC(=S)Nc1cccc(C(C)=O)c1	1	0	-14	x	4	i	-6	0
COc1ccc(NC(=O)N2CCCc3ccccc32)cc1OC	0	-1	-13	-8	-2	i	-4	-19
CCOCCn1c(N(C)Cc2ccccc2)nc2c1c(=O)[nH]c(=O)n2C	3	3	-6	0	-8	i	8	-69
O=C(CSCc1ccccc1)NC1CCSC1=O (stereo not given)	-2	1	-2	x	-1	i	11	x
CN[C@@H](CO)C(=O)NC[C@H]1O[C@@H](n2cc(C)c(=O)[nH]c2=O)C[C@@H]1O	1	5	x	-18	x	x	x	16
CC(=O)OCC1=C(C(=O)O)N2C(=O)C(NC(=O)C(C)Cn3nc(C)c(Cl)c3C)C2SC1 (stereo not given)	-2	4	-11	x	44	i	1	-5
O=C(NCCO)c1ccc2[nH]c3c(c2c1)CCCC3	8	2	x	-13	-11	i	-5	x
O=C1Nc2cc(C(=O)N3CCc4ccccc4C3)ccc2S/C1=C\c1ccccc1	-3	-3	118*	10	-12	i	16	x
COc1cccc(C2CC(c3ccccc3Cl)Nc3ncnn32)c1 (stereo not given)	3	1	x	-12	x	x	x	-19
CN(C(=O)CSc1nncc2ccccc12)c1ccccc1	-7	-1	-11	-18	x	x	x	x
COc1ccc(SCCN2CCN(C)CCC2=O)cc1	12	4	x	-13	-7	i	-10	-6
O=C(O)COc1ccc(-c2nnn(CC(=O)O)n2)cc1	1	-3	-9	-13	-4	i	4	-70
O=S(=O)(Nc1cccc(S(=O)(=O)N2CCOCC2)c1)c1cccs1	-2	5	-4	-11	-1	i	-2	-12
COc1ccccc1NCCC(=O)OCC(=O)NC1CCCCC1	-1	6	-8	x	-8	i	1	x
Cc1c(Cl)cccc1NC(=O)CSc1nc2ncc(Cl)cc2[nH]1	-2	-7	34	-21	-4	i	-21	10
O=C(/C=C/c1ccc(F)cc1)Nc1ccc(S(=O)(=O)Nc2ncccn2)cc1	0	-2	-8	x	-4	i	9	-6
Cc1c(NC(=O)C2CC(c3c(F)cccc3Cl)=NO2)c(=O)n(-c2ccccc2)n1C (stereo not given)	6	-1	x	-15	7	i	7	x
Cc1cc(NC(=O)c2ccc(NC(=O)C(C)C)cc2)no1	9	7	-10	-17	-16	i	-14	x
CC(C)CN(C(=O)CSc1nnnn1C)C1CCS(=O)(=O)C1 (stereo not given)	-2	4	6	x	12	i	-19	8
CC(C)CN(C(=O)COC(=O)c1cnccn1)c1c(N)n(Cc2ccccc2)c(=O)[nH]c1=O	-7	4	2	x	x	i	x	x

Remaining list, next part:
SMILES	MT1-MMP act inh	MT1-MMP act inh RFP	CSC inhib	UUG fidelity	eIF4H FP inh	Rce1 inh	PABP polyA inh	HIV Env fusion	others
CN(CCOc1ccc(Br)cc1)CC(O)c1ccccc1 (stereo not given)	-1	1	12	-12	9	i	8	0
Cc1ccc(-n2c(C)c(C)c3c(NCCN(C)C)ncnc32)cc1	0	1	56	-10	-2	i	-9	3
O=C(CCNS(=O)(=O)c1ccccc1)OCC(=O)c1ccc[nH]1	0	2	-8	-14	x	i	x	4
O=C1CCCc2c1nc(-c1ccccc1F)n2O	1	1	-8	x	1	i	-5	17
CCOc1ccccc1NC(=O)Cn1c(C)cc(COC)c(C#N)c1=O	-2	0	-14	-17	6	i	7	-24
Cc1cc(NC(=O)COc2ccccc2C(N)=O)no1	0	3	-18	-9	x	x	x	-15
Cc1ccc(Cl)cc1N1CCN(C(=O)c2ccc(NC3=NC4CS(=O)(=O)CC4S3)cc2)CC1 (stereo not given)	7	5	-5	-22	-17	i	1	4
COc1ccc(C(=O)NNC(=O)C2CCCN(C3CC(=O)N(c4ccccc4)C3=O)C2)cc1 (stereo not given)	-1	1	-9	x	-5	i	-5	-2
Cc1nn(Cc2ccc(C(=O)N3N=C(C(F)F)CC3(O)C(F)F)cc2)c(C)c1[N+](=O)[O-] (stereo not given)	17	5	-9	-6	-5	i	1	x
CCCn1c(N)c(C(=O)CSc2ncc(C(F)(F)F)cc2Cl)c(=O)[nH]c1=O	0	-6	49	x	-6	i	-12	-13
C/C(=N/NS(=O)(=O)c1ccc(F)cc1)c1ccc(NC(=O)c2ccc(C)o2)cc1	1	-5	-4	8	-2	i	-10	x
NNC(=O)c1ccc(COc2ccc3c(c2)CCC3)o1	-1	1	-15	x	5	i	11	-22
O=C(Cn1cnc2ccccc2c1=O)NCCC(=O)Nc1ccc2c(c1)OCCO2	2	5	5	-14	-4	i	-12	u
CCN1CCN(C(C)C(=O)Nc2c(C)n(C)n(-c3ccccc3)c2=O)CC1 (stereo not given)	-11	-5	-8	-8	-7	x	10	14
O=C1C2C(C(=O)N1/N=C/c1ccc([N+](=O)[O-])o1)C1C=CC2C12CC2 (stereo not given)	-8	5	-3	-5	21	i	-5	-10
O=C(N[C@@H](Cc1ccccc1)C(=O)OCc1ccccc1)c1nc[nH]c1C(=O)N1CCNCC1	5	6	-12	-14	x	x	x	-24
COc1ccc(C(=O)c2ccccc2)cc1Br	2	-2	11	-13	-3	i	-3	-209

Grouped by structure, those above containing an NH in an aromatic ring.
SMILES	MT1-MMP act inh	MT1-MMP act inh RFP	CSC inhib	UUG fidelity	eIF4H FP inh	Rce1 inh	PABP polyA inh	HIV Env fusion	others
CC(c1ccc(F)cc1)n1c(-c2cccs2)n[nH]c1=S (stereo not given)	0	2	-9	x	7	i	2	1
CCOCCn1c(SCc2c(F)cccc2Cl)nc2c1c(=O)[nH]c(=O)n2C	7	-2	-13	-2	4	i	6	-37
Cc1ccc(NC(=O)NCc2ccc3[nH]c(C)cc3c2)cc1	10	8	4	x	2	i	-10	3
CCOCCn1c(N(C)Cc2ccccc2)nc2c1c(=O)[nH]c(=O)n2C	3	3	-6	0	-8	i	8	-69
CN[C@@H](CO)C(=O)NC[C@H]1O[C@@H](n2cc(C)c(=O)[nH]c2=O)C[C@@H]1O	1	5	x	-18	x	x	x	16
O=C(NCCO)c1ccc2[nH]c3c(c2c1)CCCC3	8	2	x	-13	-11	i	-5	x
Cc1c(Cl)cccc1NC(=O)CSc1nc2ncc(Cl)cc2[nH]1	-2	-7	34	-21	-4	i	-21	10
CC(C)CN(C(=O)COC(=O)c1cnccn1)c1c(N)n(Cc2ccccc2)c(=O)[nH]c1=O	-7	4	2	x	x	i	x	x
O=C(CCNS(=O)(=O)c1ccccc1)OCC(=O)c1ccc[nH]1	0	2	-8	-14	x	i	x	4
CCCn1c(N)c(C(=O)CSc2ncc(C(F)(F)F)cc2Cl)c(=O)[nH]c1=O	0	-6	49	x	-6	i	-12	-13
O=C(N[C@@H](Cc1ccccc1)C(=O)OCc1ccccc1)c1nc[nH]c1C(=O)N1CCNCC1	5	6	-12	-14	x	x	x	-24

Assay outcomes from PubChem BioAssay.
